Screening results (PubChem BioAssay)
Vaccinia stage: blocks a specific stage of Vaccinia orthopoxvirus infection; Vaccinia-infected cells, mCherry/Venus stage reporter fluorescence; stronger effect = lower value; some inactives read as strong as hits; activity change (mCherry), % (test concentration not listed); 89,000 tested, 0.01% active;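 active means mCherry past -33% and 40 or more points under the early reporter, replicates agreeing; inconclusive means past -33% without that gap or agreement; tested in A549 cells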;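 further: scaled between vehicle wells and reference inhibitor wells; 23 nL library stock went into each well; one replicate is shown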
Vaccinia stage Venus: also measured in Vaccinia stage; calls as there; activity change (Venus), %; measured here: Venus reporter, other viral stage;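 negative = less Venus signal; first of two replicates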
Starred values were filed as active, the others as inactive; ? = inconclusive; . = no result given.

Results follow in this order: Vaccinia stage, Vaccinia stage Venus
> COc1ccc(-c2cnc3c(c2)C(=O)N([C@@H](C)CO)C[C@H](C)[C@@H](CN(C)C(=O)Cc2ccncc2)O3)cc1
→ -9, -1
> CO[C@H](CN(C)C(=O)C1CCOCC1)[C@@H](C)CN(C(=O)Nc1ccc(F)cc1)[C@@H](C)CO
→ 5, 4
> C[C@H]1CN([C@@H](C)CO)C(=O)Cc2cc(NS(=O)(=O)c3ccc(Cl)cc3)ccc2O[C@H]1CN(C)C(=O)Nc1cccc2ccccc12
→ 12, 4
> O=C(CC1CC1)N1[C@H](CO)[C@H](c2ccccc2)C12CN(S(=O)(=O)c1ccccc1)C2
→ -2, 2
> COc1cccc(S(=O)(=O)N(C)C[C@H]2Oc3ncc(C#CCN(C)C)cc3C(=O)N([C@H](C)CO)C[C@H]2C)c1
→ -2, -2
> Cc1noc(C)c1S(=O)(=O)Nc1ccc2c(c1)C(=O)N([C@H](C)CO)C[C@H](C)[C@@H](CN(C)Cc1ccc(C(=O)Nc3ccccc3N)cc1)O2
→ 2, 2
> C[C@H]1CN([C@@H](C)CO)C(=O)Cc2cc(NS(C)(=O)=O)ccc2O[C@@H]1CN(C)C(=O)Nc1ccccc1
→ 18, 8
> CCCN(C)C[C@H]1OCc2cn(nn2)CCCC(=O)N([C@@H](C)CO)C[C@H]1C
→ 6, 4
> C[C@H](CO)N1C[C@H](C)[C@H](CN(C)C(=O)Nc2ccc3c(c2)OCO3)Oc2ccc(NC(=O)Nc3cccc4ccccc34)cc2CC1=O
→ 6, 12
> CCC(=O)NC[C@H]1N[C@H](CO)[C@@H]1c1ccc(-c2cccc(C#N)c2)cc1
→ 8, 6
> O=C(C[C@@H]1CC[C@H](NC(=O)Nc2ccccc2F)[C@H](CO)O1)NCc1ccc(-c2ccccc2)cc1
→ ?, .
> Cc1noc(C)c1NC(=O)Nc1ccc2c(c1)C(=O)N([C@H](C)CO)C[C@@H](C)[C@H](CN(C)S(=O)(=O)c1cccs1)OCCCC[C@H](C)O2
→ 14, 8
> O=C(Nc1ccc(Cl)cc1)N[C@@H]1CC[C@@H](CCn2cc(C3(O)CCCC3)nn2)O[C@@H]1CO
→ 1, 9
> O=C(C[C@@H]1CC[C@H]2[C@@H](COC[C@H](O)CN2Cc2cccc(-c3ccncc3)c2)O1)N1CCCCC1
→ -17, -20
> CC=Cc1ccc2n(c1=O)C[C@H]1[C@H](CO)[C@@H](C(=O)NCC(F)(F)F)[C@@H]2N1C(=O)CC (mixture of isomers)
→ 4, 7
> C[C@H]1CN([C@@H](C)CO)C(=O)c2cc(/C=C/c3ccccc3)cnc2O[C@H]1CN(C)S(C)(=O)=O
→ -3, -2
> O=C(c1cccnc1)N1CCCCN2[C@@H](CO)[C@H](c3ccc(C#Cc4ccccc4)cc3)[C@@H]2C1
→ -22, -26
> COc1ccc(CN(C)C[C@@H]2OCCCC[C@H](C)Oc3ccc(NC(=O)NC(C)C)cc3C(=O)N([C@H](C)CO)C[C@@H]2C)cc1
→ -6, -3
> COc1ccc(NC(=O)N(C)C[C@@H]2OCCCC[C@@H](C)Oc3ccc(NS(=O)(=O)c4cn(C)cn4)cc3C(=O)N([C@@H](C)CO)C[C@H]2C)cc1
→ 17, 8
> Cc1ccccc1-c1ccc([C@H]2[C@@H](CO)N3C(=O)CN(C(=O)c4ccccc4)C[C@@H]23)cc1
→ -6, -5
> COc1ccc(NC(=O)N(C)C[C@H]2Oc3ccc(NS(C)(=O)=O)cc3CC(=O)N([C@H](C)CO)C[C@H]2C)cc1
→ 8, -3
> C[C@@H]1CN([C@@H](C)CO)C(=O)Cc2cc(N(C)C)ccc2O[C@@H]1CN(C)C(=O)Nc1ccccc1
→ 12, 13
> COc1ccc(CN(C)C[C@@H]2Oc3ccc(NC(=O)Cc4cn(C)c5ccccc45)cc3CC(=O)N([C@H](C)CO)C[C@@H]2C)cc1
→ -11, -8
> C[C@@H]1CN([C@H](C)CO)C(=O)c2cc(NS(=O)(=O)c3ccc(Cl)cc3)ccc2O[C@@H]1CN(C)C(=O)Nc1ccc(F)cc1
→ -3, -3
> CC(=O)n1cc([C@H]2C=C(C(=O)N3CCN(Cc4ccc5c(c4)OCO5)CC3)O[C@@H](OCc3ccc(CO)cc3)C2)c2ccccc21
→ -28, -28
> CO[C@H]1CN(C)C(=O)c2cc(NC(C)=O)ccc2OC[C@H](C)N(C(=O)c2ccccn2)C[C@H]1C
→ 12, 17
> CN(C)CC(=O)Nc1ccc2c(c1)[C@@H]1C[C@H](CC(=O)N3CCN(C)CC3)O[C@H](CO)[C@@H]1O2
→ 10, 9
> CCNC(=O)C[C@H]1CC[C@H]2[C@@H](COc3ccc(NC(=O)Nc4ccc(C#N)cc4)cc3C(=O)N2C)O1
→ 17, 24
> C[C@@H]1CN([C@H](C)CO)C(=O)CCCn2nncc2CO[C@@H]1CN(C)S(=O)(=O)c1cccc(F)c1
→ 19, 8
> CO[C@@H]1CN(C)C(=O)c2cc(NC(=O)NC(C)C)ccc2OC[C@@H](C)N(Cc2ccccn2)C[C@@H]1C
→ 5, 1

At a glance, part of the list above:
Results follow in this order: Vaccinia stage, Vaccinia stage Venus
> Cc1ccccc1-c1ccc([C@H]2[C@@H](CO)N3C(=O)CN(C(=O)c4ccccc4)C[C@@H]23)cc1
→ -6, -5
> COc1ccc(NC(=O)N(C)C[C@H]2Oc3ccc(NS(C)(=O)=O)cc3CC(=O)N([C@H](C)CO)C[C@H]2C)cc1
→ 8, -3
> C[C@@H]1CN([C@@H](C)CO)C(=O)Cc2cc(N(C)C)ccc2O[C@@H]1CN(C)C(=O)Nc1ccccc1
→ 12, 13
> COc1ccc(CN(C)C[C@@H]2Oc3ccc(NC(=O)Cc4cn(C)c5ccccc45)cc3CC(=O)N([C@H](C)CO)C[C@@H]2C)cc1
→ -11, -8
> C[C@@H]1CN([C@H](C)CO)C(=O)c2cc(NS(=O)(=O)c3ccc(Cl)cc3)ccc2O[C@@H]1CN(C)C(=O)Nc1ccc(F)cc1
→ -3, -3
> CC(=O)n1cc([C@H]2C=C(C(=O)N3CCN(Cc4ccc5c(c4)OCO5)CC3)O[C@@H](OCc3ccc(CO)cc3)C2)c2ccccc21
→ -28, -28
> CO[C@H]1CN(C)C(=O)c2cc(NC(C)=O)ccc2OC[C@H](C)N(C(=O)c2ccccn2)C[C@H]1C
→ 12, 17
> CN(C)CC(=O)Nc1ccc2c(c1)[C@@H]1C[C@H](CC(=O)N3CCN(C)CC3)O[C@H](CO)[C@@H]1O2
→ 10, 9
> CCNC(=O)C[C@H]1CC[C@H]2[C@@H](COc3ccc(NC(=O)Nc4ccc(C#N)cc4)cc3C(=O)N2C)O1
→ 17, 24
> C[C@@H]1CN([C@H](C)CO)C(=O)CCCn2nncc2CO[C@@H]1CN(C)S(=O)(=O)c1cccc(F)c1
→ 19, 8
> CO[C@@H]1CN(C)C(=O)c2cc(NC(=O)NC(C)C)ccc2OC[C@@H](C)N(Cc2ccccn2)C[C@@H]1C
→ 5, 1

More entries.
Results follow in this order: Vaccinia stage, Vaccinia stage Venus
> O=C(N[C@@H]1CC[C@@H](CCn2cc(-c3ccccc3F)nn2)O[C@H]1CO)c1ccc2c(c1)OCO2
→ -15, 3
> CN1CCN(C(=O)C[C@H]2CC[C@@H]3[C@@H](COc4ccc(NC(=O)c5cscn5)cc4C(=O)N3C)O2)CC1
→ 4, 13
> O=C(C[C@@H]1CC[C@H]2[C@@H](COC[C@@H](O)CN2C(=O)c2ccc(F)cc2)O1)Nc1ccc(-c2ccccc2)cc1
→ ?, .
> C[C@@H]1CN([C@H](C)CO)S(=O)(=O)c2ccc(-c3ccc(C#N)cc3)cc2O[C@H]1CN(C)C(=O)CN(C)C
→ -2, 4
> COc1ccc(NC(=O)N(C)C[C@@H]2OCCCC[C@@H](C)Oc3ccc(NC(=O)Nc4ccc(C(F)(F)F)cc4)cc3C(=O)N([C@@H](C)CO)C[C@H]2C)cc1
→ -19, -11
> COc1ccccc1CNC(=O)C[C@@H]1CC[C@H]2[C@@H](COC[C@H](O)CN2C(=O)Nc2ccc(F)cc2)O1
→ -3, -10
> CCCC(=O)Nc1ccc2c(c1)OC[C@@H](C)N(CCC)C[C@H](C)[C@@H](OC)CN(C)C2=O
→ -2, 4
> C[C@@H]1CN([C@H](C)CO)S(=O)(=O)c2ccc(C3=CCCCC3)cc2O[C@H]1CN(C)S(=O)(=O)c1ccc(F)cc1
→ -20, -24
> Cc1ccc(CN2CC(=O)N3[C@H](CO)[C@H](c4ccc(Br)cc4)[C@@H]3C2)cc1
→ 26, 8
> C[C@H](CO)N1C[C@H](C)[C@H](CN(C)C(=O)NC2CCCC2)Oc2cc(-c3cccnc3)ccc2S1(=O)=O
→ 3, 10
> Cc1ccc(S(=O)(=O)Nc2ccc3c(c2)C(=O)N([C@H](C)CO)C[C@@H](C)[C@H](CN(C)C(=O)Nc2ccccc2)O3)cc1
→ 9, 5
> CC(=O)N1[C@H](CO)[C@@H](c2ccccc2)C12CN(C(=O)Cc1ccccc1)C2
→ 13, 10
> COCCNC(=O)[C@H]1[C@H](CO)[C@H]2Cn3c(ccc(-c4ccccc4F)c3=O)[C@H]2N1C(=O)C1CCC1
→ 17, 12
> Cc1noc(C)c1S(=O)(=O)Nc1ccc2c(c1)C(=O)N([C@@H](C)CO)C[C@@H](C)[C@@H](CN(C)C(=O)Nc1cccc3ccccc13)OCCCC[C@H](C)O2
→ -2, -2
> Cc1noc(C)c1S(=O)(=O)Nc1ccc2c(c1)CC(=O)N([C@@H](C)CO)C[C@H](C)[C@H](CN(C)Cc1ccncc1)O2
→ -4, 3
> CNC[C@@H]1OCCCC[C@@H](C)Oc2ccc(NS(=O)(=O)c3ccc(OC)cc3)cc2C(=O)N([C@H](C)CO)C[C@@H]1C
→ 6, 4
> Cc1ccc(S(=O)(=O)Nc2ccc3c(c2)C(=O)N([C@H](C)CO)C[C@@H](C)[C@H](CN(C)C(=O)NC2CCCCC2)OCCCC[C@H](C)O3)cc1
→ ?, .
> C[C@H](CO)N1C[C@H](C)[C@@H](CN(C)Cc2ccncc2)Oc2ccc(NC(=O)CCC(F)(F)F)cc2CC1=O
→ 18, 7
> O=C(CCN1CCCCC1)N[C@@H]1CC[C@@H](CCNS(=O)(=O)c2ccccc2)O[C@@H]1CO
→ 7, 1
> COCc1cn(CC[C@H]2CC[C@H](NC(=O)Nc3ccc(F)cc3)[C@@H](CO)O2)nn1
→ 3, -1
> CCC(=O)Nc1ccc2c(c1)OC[C@H](C)N(Cc1nccs1)C[C@@H](C)[C@@H](OC)CN(C)C2=O
→ 3, 1
> O=C(C[C@@H]1CC[C@@H](NC(=O)CC2CC2)[C@H](CO)O1)NCc1ccc(-c2ccccc2)cc1
→ -4, 1
> COc1ccc2c3c(n(C)c2c1)[C@@H](CO)N(C(=O)CC1CC1)CC31CCN(C(=O)C2CCCC2)CC1
→ 2, 1
> CC(C)C#Cc1cnc2c(c1)C(=O)N([C@H](C)CO)C[C@H](C)[C@@H](CN(C)Cc1cccc(F)c1)O2
→ -18, -14
> C[C@@H]1CN([C@@H](C)CO)C(=O)c2cccc(NS(C)(=O)=O)c2O[C@@H]1CN(C)Cc1ccc2c(c1)OCO2
→ 9, 4
> O=C(c1cnccn1)N1CC(=O)N2[C@H](CO)[C@@H](c3ccc(C#CCC4CCCC4)cc3)[C@H]2C1
→ -29, -25
> CCCNC(=O)N1CC2(C1)CN(C(=O)c1cccnc1)[C@H](CO)c1[nH]c3cc(OC)ccc3c12
→ -8, -9
> CC(C)NC(=O)N(C)C[C@H]1Oc2c(NC(=O)c3cnccn3)cccc2C(=O)N([C@H](C)CO)C[C@@H]1C
→ 4, -10
> COc1ccc(NC(=O)Nc2ccc3c(c2)CC(=O)N([C@@H](C)CO)C[C@H](C)[C@@H](CN(C)CC2CCCCC2)O3)cc1
→ -24, -16
> COc1ccc(NC(=O)Nc2ccc3c(c2)C(=O)N([C@H](C)CO)C[C@H](C)[C@@H](CN(C)Cc2ccc4c(c2)OCO4)OCCCC[C@@H](C)O3)cc1
→ -14, -16
> COc1ccc(S(=O)(=O)N(C)C[C@@H]2OCCCC[C@@H](C)Oc3ccc(NC(=O)NC4CCCCC4)cc3C(=O)N([C@H](C)CO)C[C@H]2C)cc1
→ 5, -2
> COc1ccccc1-c1ccc([C@H]2[C@H](C#N)N(C(=O)CN(C)C)[C@H]2CO)cc1
→ 17, 9
> CO[C@H]1CN(C)C(=O)c2cc(NC(=O)C3CC3)ccc2OC[C@@H](C)N(Cc2cccc(F)c2)C[C@@H]1C
→ -21, -8
> O=C(NC1CCCCC1)N1CC(=O)N2[C@H](C1)[C@H](c1ccc(-c3cccc(F)c3)cc1)[C@@H]2CO
→ ?, .
> CC(C)C#Cc1ccc2c(c1)O[C@@H](CN(C)C(=O)c1cccc(F)c1)[C@@H](C)CN([C@@H](C)CO)S2(=O)=O
→ ?, .
> O=C(C[C@@H]1C[C@@H]2c3cc(NC(=O)Nc4ccc(C(F)(F)F)cc4)ccc3O[C@@H]2[C@H](CO)O1)NCc1ccc2c(c1)OCO2
→ 7, 4
> C[C@H](CO)N1C[C@H](C)[C@H](CN(C)Cc2ccc(-c3ccccc3)cc2)Oc2ccc(NS(=O)(=O)c3ccccc3)cc2C1=O
→ ?, .
> C[C@H](CO)N1C[C@H](C)[C@H](CN(C)S(=O)(=O)c2cccc(F)c2)Oc2cc(Br)ccc2S1(=O)=O
→ ?, .
> COc1ccc2c3c([nH]c2c1)[C@H](CO)N(C(=O)Nc1ccc(F)cc1)CC31CCN(Cc2cc(-c3ccccc3)on2)CC1
→ -20, -9
> C[C@@H]1CN([C@H](C)CO)C(=O)c2cc(NS(=O)(=O)c3cccs3)ccc2O[C@@H](C)CCCCO[C@H]1CN(C)Cc1ccccc1
→ -33, -24
> O=C(C[C@@H]1C=C[C@H](NS(=O)(=O)c2ccccc2)[C@H](CO)O1)NCCN1CCCCC1
→ -7, -6

The list is partial, so the mix of outcomes need not match the whole.
